High-throughput results deposited in PubChem by National Center for Advancing Translational Sciences (NCATS).
2A StopGo = FMDV 2A StopGo reporter, luciferase signal; Potency, µM (top dose mostly 57.9 µM), inactives show top-dose signal change, negative = less light; AID 1159524; hit rate 1.2% among 410,000; human cells with a luciferase reporter of 2A StopGo recoding; control for the full effect not named in the record; active = well fitted falling curve with a large enough effect; inconclusive = small, poorly fitted or top-dose-only effect; inactive = no such curve, though single readings can be large or run the other way; tested in HEK293T cells; also: % is scaled to controls: 0 for no effect and ±100 for the full control effect; nearly all actives have a fitted effect of over 45% in size; luciferase light after 4 h
Marburg entry inh = Marburg virus entry inhibition; hit rate 1.8% among 300,000; Potency, µM (doses to about 37.8 µM), without a hit: at the highest dose activity change, negative = inhibition, actives largely listed as inhibitors; Marburg virus pseudotyped entry inhibition, cell reporter; control for the full effect not named in the record; about a third of the inactives were read at about 46 µM; active = well fitted inhibition curve with a large enough effect; inconclusive = small, poorly fitted or top-dose-only effect, or effect the other way; inactive = flat fitted curve, though single readings scatter; tested in HEK293 cells; about a fifth of its hits are not listed in these tables; also: % is scaled to controls: 0 for no effect and ±100 for the full control effect; luciferase read-out
Lassa entry inh = inhibitors of Lassa virus binding or cell entry. hit rate 1.2% among 300,000. Lassa virus pseudotype entry inhibition, cell reporter; control for the full effect not named in the record. AID 540256. Potency, µM (highest dose often 37.9 µM), for the others: top-dose activity change, negative = inhibition, most hits filed as inhibitors; active means well fitted inhibition curve with a large enough effect; inconclusive means small, poorly fitted or top-dose-only effect, or effect the other way; inactive means flat fitted curve, though single readings scatter; tested in HEK293 cells; also: % is scaled to controls: 0 for no effect and ±100 for the full control effect; nearly all actives have a fitted effect of over 50% in size; luciferase read-out
NS1 inh = blocks influenza NS1 protein function | Potency, µM (series often up to 46.1 µM), for inactives: at the highest dose activity, positive = more growth | hit rate 0.4% among 270,000 | S. cerevisiae slowed by influenza A NS1, growth recovery by OD600; active means well fitted rising curve with a large enough effect; inconclusive means small, poorly fitted or top-dose-only effect; inactive means no such curve, though single readings can be large or run the other way; also: nearly all actives have a fitted effect of over 50% in size
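OD600 was taken as the measure of yeast growth restored by compound in an NS1-expressing S. cerevisiae strain. Cells had been washed out of glucose medium and diluted 1:100 into galactose -URA medium, pH 6.0.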
SARS PLpro yeast = SARS-CoV PLP inhibition in yeast | hit rate 0.19% among 330,000 | Potency, µM (titrated, usually from 32.9 µM), without a hit: top-dose activity, positive = growth rescue | S. cerevisiae expressing SARS-CoV PLpro, growth rescue; control for the full effect not named in the record; active means well fitted rising curve with a large enough effect; inconclusive means small, poorly fitted or top-dose-only effect; inactive means no such curve, though single readings can be large or run the other way; also: 0% is about no effect; nearly all actives have a fitted effect of over 55% in size; growth read by luminescence after 48 h
Cruzain inh noDet = inhibitors of Trypanosoma cruzi cruzain without detergent. purified cruzain, Z-FR-AMC fluorescence, no detergent. Potency, µM, for the others: max response, negative = inhibition, hits mostly inhibitors. hit rate 2.3% among 200,000;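 also: plate controls were enzyme without inhibitor for no effect and buffer without enzyme for full effect; nearly all actives have a fitted effect of over 40% in size; top concentration of the series not given in the record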
Target sequence (P25779 123-467 limits assumed): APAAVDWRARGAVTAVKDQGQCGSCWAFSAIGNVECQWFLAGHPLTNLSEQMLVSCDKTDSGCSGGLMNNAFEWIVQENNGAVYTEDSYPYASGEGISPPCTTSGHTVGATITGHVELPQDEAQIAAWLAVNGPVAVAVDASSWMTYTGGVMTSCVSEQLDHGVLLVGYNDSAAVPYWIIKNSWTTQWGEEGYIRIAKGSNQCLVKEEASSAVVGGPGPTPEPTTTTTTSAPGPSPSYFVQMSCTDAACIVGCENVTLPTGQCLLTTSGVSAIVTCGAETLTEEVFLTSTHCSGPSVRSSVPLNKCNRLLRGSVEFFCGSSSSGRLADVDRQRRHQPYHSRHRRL
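Purified cruzain at 1.5 nM, pre-incubated 15 min with compound at room temperature in 100 mM sodium acetate pH 5.5, 5 mM DTT, 0.00005% Triton X-100. Reaction started with 2 uM Z-FR-AMC; AMC fluorescence increase over 60 s gives rate.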
RE007 growth inh = less growth of the S. pombe RE007 Vpr strain. Potency, µM (titrated, usually from 92.2 µM), inactives show top-dose activity change, negative = less growth. hit rate 0.21% among 360,000. AID 651644. S. pombe RE007 Vpr strain, BacTiter-Glo ATP luminescence, 24 h; control for the full effect not named in the record; active = well fitted falling curve with a large enough effect; inconclusive = small, poorly fitted or top-dose-only effect; inactive = no such curve, though single readings can be large or run the other way;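 also: % is scaled to controls: 0 for no effect and ±100 for the full control effect; nearly all actives have a fitted effect of over 50% in size; the assay follows cell death caused by Vpr and the record does not say whether a fall means rescue or toxicity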
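Fission yeast strain RE007, carrying one chromosomally integrated HIV-1 vpr copy, was seeded at OD 0.01 in PMG+AL medium with 23 nL pinned compound. After 24 h at 30 °C and 99% humidity, viability was read by BacTiter-Glo luminescence.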
Cruzain inh Det = blocks cruzain activity in presence of Triton detergent; purified cruzain, Z-FR-AMC fluorescence, 0.01% Triton; Potency, µM, for the others: max response, negative = inhibition, usual class: inhibitors; hit rate 0.43% among 200,000; AID 1478;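 also: plate controls were neutral wells for no effect and buffer without enzyme for full effect; nearly all actives have a fitted effect of over 40% in size; top concentration of the series not given in the record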
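Z-FR-AMC hydrolysis (2 uM substrate) by cruzain (1.5 nM) monitored kinetically at ex 360/em 450 nm after 15 min room-temperature compound exposure; 0.01% Triton X-100, pH 5.5, 5 mM DTT.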
An asterisk follows results filed as active; ? = inconclusive; . = not tested or not shown; [ ] = remark or other dose. Unless noted, calls follow the shape of the dose curve; as a rule, active = well fitted curve in the direction sought with a large enough effect; inconclusive = small, poorly fitted or top-dose-only effect, or another doubt; inactive = no such curve, though single readings can be large; an effect the other way counts as inactive or inconclusive. Potency is read from the fitted curve at half-maximal effect. Random draw from the library. Share with any hit: about 4.8%.

SMILES | 2A StopGo | Marburg entry inh | Lassa entry inh | NS1 inh | SARS PLpro yeast | Cruzain inh noDet | RE007 growth inh | Cruzain inh Det
CCC1(C)Cc2c(C#N)c(N)sc(=S)c2CO1 (stereo not given) | -12% | ? | -4% | ? | -13% | -18% | -3% | -3.7%
Cc1cc(C(=O)NCCc2ccccc2)c2cc(F)ccc2n1 | 9% | 20%[46.1 µM] | . | -1% | -1% | . | -5% | .
CCN=C1SC(C(=O)Nc2cccc(C)c2)CC(=O)N1CC (stereo not given) | -21% | -18% | -7% | 3% | 2% | -2% | -4% | 1.3%
N#Cc1ccc(Oc2ccc(-c3nc4ccccc4nc3-c3ccccc3)cc2)cc1C#N | -22% | ? | -15% | -3% | 21% | ? | -7% | -4.2%
CCn1c(SCC(=O)OC)nnc1-c1ccc(C)cc1 | -15% | -9%[46.1 µM] | 3%[46.1 µM] | 2% | -2% | . | -11% | .
COc1ccc(S(=O)(=O)N(CCN2CCOCC2)Cc2cc(OC)ccc2OC)cc1 | 19% | -4%[46.1 µM] | -7% | -9% | 0% | -4% | 19% | 3.8%
O=C(Nc1c(F)cccc1F)c1cnc(N2CCN(c3ccccn3)CC2)c2ccccc12 | 13µM* | ? | ? | -13% | -7% | 10% | ? | -17%
O=C(Nc1ccc(Cl)cc1)Nc1nnc(SCc2ccccc2)s1 | 0% | . | . | 3% | -23% | 7.9µM* | -9% | -0.7%
O=C(Nc1ncc2c(n1)-c1ccccc1CC2)C1CC1 | 14% | 17%[46.1 µM] | ? | . | 0% | . | 2% | .
CN1CC(C#N)C2(O)c3ccccc3CCC2C1 (stereo not given) | -19% | -7% | 26% | 8% | 4% | . | 8% | .
COc1cc(/C=N\NC(=O)CNC(=O)c2cccc([N+](=O)[O-])c2)ccc1O | -25% | ? | 8% | 9% | 6% | 6% | -11% | -4.8%
Cc1ccc(Nc2nnc(-c3ccc(C)c(S(=O)(=O)N4CCN(C)CC4)c3)c3ccccc23)c(C)c1 | -27% | 12%[46.1 µM] | -2%[46.1 µM] | . | . | 4% | . | -0.7%
CCOc1ccc(CCNC(=O)C2CCN(c3nn4c(=O)cc(C)nc4s3)CC2)cc1 | -17% | -1% | -1% | 3% | 1% | 4% | -16% | -7.4%
Cc1ccc(NC(=O)CN2C(=O)CCc3cc(S(=O)(=O)N4CCCCC4)ccc32)cc1C | -13% | . | -2%[46.1 µM] | . | . | 16% | . | -6.5%
C[C@]12CCC3C(C1CCC2=O)[C@H](O)C[C@H]1C[C@@H](O)CC[C@]31C (stereo not given in full) | 4% | 1% | -16% | . | -2% | . | 6% | .
CC1Cc2ccccc2N1C(=O)c1nn(C)cc1Br (stereo not given) | 11% | ? | -3% | -12% | -32% | 4% | -12% | -0.6%
Cc1ccc(C(=O)NN2C(=O)C3C4c5ccccc5C(c5ccccc54)[C@@H]3C2=O)cc1 (stereo not given in full) | -18% | -4% | -16% | -2% | -22% | -1% | 20% | -7.3%
CCOc1ccccc1C1CC(=O)NC(SCC)=C1C#N (stereo not given) | . | 2% | -17% | 2% | 3% | -2% | 1% | -6.1%
Cc1cccc(Nc2c3c(nc4nncn24)CCC3)c1C | -24% | -12%[46.1 µM] | -12%[46.1 µM] | . | . | 7% | . | -0.6%
CCOC(=O)C1(Cc2cccc(Cl)c2)CCCN(C(=O)CCSC)C1 (stereo not given) | 14% | . | . | -21% | 1% | . | 0% | .
CC(=O)Nc1ccc(NC(=O)CCCn2nc(C)c3sc4ccccc4c3c2=O)cc1 | -19% | 2%[46.1 µM] | 5%[46.1 µM] | . | . | ? | . | -3.1%
COc1cccc(N2CCN(S(=O)(=O)c3cc4c(cc3Cl)NC(=O)CO4)CC2)c1 | -25% | . | . | -4% | 1% | . | 3% | .
Cc1ccc(NC(=O)/C(C#N)=N/Nc2ccc(C(=O)O)cc2)c(C)c1 | -2% | -3%[46.1 µM] | 26% | 2% | -1% | . | 3% | .
COC(=O)c1ncn(C2OC(COC(C)=O)C(OC(C)=O)C2OC(C)=O)n1 (stereo not given) | -1% | -6% | 0% | 5% | 17% | 4% | -2% | 1.9%
Cc1ccccc1CN1CCN(CC(=O)NCc2ccccc2)CC1 | -15% | 4% | ? | 1% | 6% | . | 1% | .

Retrieved one by one from above (two):
SMILES | 2A StopGo | Marburg entry inh | Lassa entry inh | NS1 inh | SARS PLpro yeast | Cruzain inh noDet | RE007 growth inh | Cruzain inh Det
COC(=O)c1ncn(C2OC(COC(C)=O)C(OC(C)=O)C2OC(C)=O)n1 (stereo not given) | -1% | -6% | 0% | 5% | 17% | 4% | -2% | 1.9%
COc1cc(/C=N\NC(=O)CNC(=O)c2cccc([N+](=O)[O-])c2)ccc1O | -25% | ? | 8% | 9% | 6% | 6% | -11% | -4.8%

(cont.)
SMILES | 2A StopGo | Marburg entry inh | Lassa entry inh | NS1 inh | SARS PLpro yeast | Cruzain inh noDet | RE007 growth inh | Cruzain inh Det
COc1ccc(C(=O)NC2CC(C)(C)Cc3occc32)cc1 (stereo not given) | -12% | 4% | 8% | -5% | 11% | -2% | 12% | 4.6%
COc1cccc(NS(=O)(=O)c2ccc3[nH]cc(C(=O)NC4CCCCC4)c(=O)c3c2)c1 | -16% | ? | -7%[46.1 µM] | . | . | -21% | . | -11%
CC(C)[C@H](NC(=O)NCCc1ccc(F)cc1)C(=O)O | -5% | 18% | 25% | 4% | -2% | -11% | 20% | -7.0%
CCCn1c(N)c(N(CCOC)C(=O)c2ccc(F)cc2)c(=O)[nH]c1=O | 1% | 9%[46.1 µM] | . | -7% | 1% | . | -10% | .
COc1ccc(CN2CCNC(=O)C2CC(=O)N2CCCCO2)cc1OC (stereo not given) | -14% | . | . | -8% | 0% | . | -9% | .
Cc1cccc(N2C(=O)N(Cc3cccc(C#N)c3)c3ccccc3S2(=O)=O)c1 | -15% | . | -2%[46.1 µM] | . | . | ? | . | -4.8%
N/C(=N\OC(=O)CC1CCCCC1)c1ccc([N+](=O)[O-])cc1 | -13% | ? | 6% | -19% | -35% | -16% | 3% | -4.1%
CCOc1cc(CNc2ccc(O)cc2)cc(Cl)c1OCc1ccccc1 | ? | -18%[46.1 µM] | ? | . | . | -7% | . | -9.0%
CCOc1ccc(NC(=O)C2CC(=O)N(C(C)C)C2)cc1 (stereo not given) | 25% | -2% | 6% | -2% | -3% | 1% | 17% | 0.2%
C=CCOc1c(Br)cc(/C=C2/C(=O)ON=C2C)cc1OC | -11% | 8%[46.1 µM] | 5%[46.1 µM] | 1% | -1% | . | -6% | .
CCCOc1ccc(/C=C2/C(=O)ON=C2C)cc1OCC | ? | -24%[46.1 µM] | -2%[46.1 µM] | 9% | 1% | . | 0% | .
CCC(=O)NCCc1nc2ccccc2n1CC(=O)c1ccccc1 | -19% | 4% | -17% | 6% | 8% | 0% | 9% | -2.6%
Cc1ccc(NS(=O)(=O)c2ccc(C)c(NC(=O)COc3ccccc3)c2)c(C)c1 | -5% | -29% | -4% | 2% | 14% | 1% | -1% | -2.9%
O=C(/C=C/c1cccs1)c1ccco1 | 19% | 2%[46.1 µM] | 5%[46.1 µM] | . | . | . | ? | .
COC(=O)c1ccc(Oc2c(C)oc3cc(OCc4cnn(-c5ccccc5)c4)ccc3c2=O)cc1 | -23% | -12% | -6% | 25% | 16% | -15% | 10% | -0.5%
CNC(=O)N1c2ccccc2C=Cc2ccccc21 | -23% | . | . | 11% | -2% | . | -3% | .
CCCCN(CC(=O)Nc1c(C)cccc1CC)C(=O)SCC | -20% | -2% | -2% | 0% | 4% | -7% | 3% | 1.7%
CN(C)c1ccc(P(=O)(Nc2cccc(C(F)(F)F)c2)N2CCOCC2)c(NC(=O)c2cccs2)c1 (stereo not given) | -19% | -27%[46.1 µM] | 13%[46.1 µM] | 10% | -7% | ? | 9% | -11%
COc1ccc(C(OCC(O)CNCCc2ccc(S(N)(=O)=O)cc2)c2ccc(OC)cc2)cc1 (stereo not given) | -1% | ? | ? | 7% | 0% | . | -15% | .
Cc1c(NS(=O)(=O)c2ccc(Cl)c(C(=O)OCC(=O)NCc3ccco3)c2)c(=O)n(-c2ccccc2)n1C | 20% | 7% | ? | . | 0% | . | 5% | .
COc1ccc(S(=O)(=O)N(C)CC(=O)NCCC2=CCCCC2)cc1C | -16% | ? | ? | -1% | -3% | ? | 1% | -0.6%
Cc1ccc(-n2c(=O)c3cccnc3n2CC(=O)Nc2ccc(Br)cc2)cc1C | 4% | 0%[46.1 µM] | 12%[46.1 µM] | . | . | ? | . | -5.8%
O=C(Cn1cc(C(F)(F)F)cc(Cl)c1=O)NCCc1ccccc1 | -20% | 4% | 1% | 9% | 15% | -4% | -22% | -3.6%
CC(=O)Nc1ccc(S(=O)(=O)N(C)CC(=O)Nc2ccccc2N2CCOCC2)cc1 | -16% | -5% | 0% | -9% | 1% | 9% | 4% | 8.0%
COc1ccc(OC)c(NC(=O)CSC2=Nc3ccccc3C3=NC(CCC(=O)NC4CCCCC4)C(=O)N23)c1 (stereo not given) | -21% | . | ? | . | . | 7% | . | -0.1%
COc1cc(OC)c(C(=O)OCC(=O)NCCC2=CCCCC2)cc1OC | -12% | -2% | ? | . | -15% | . | 4% | .

In another format: 3 of the compounds above.
Value order: 2A StopGo	Marburg entry inh	Lassa entry inh	NS1 inh	SARS PLpro yeast	Cruzain inh noDet	RE007 growth inh	Cruzain inh Det
> Cc1ccc(NS(=O)(=O)c2ccc(C)c(NC(=O)COc3ccccc3)c2)c(C)c1
 : -5%	-29%	-4%	2%	14%	1%	-1%	-2.9%
> O=C(/C=C/c1cccs1)c1ccco1
 : 19%	2%[46.1 µM]	5%[46.1 µM]	.	.	.	?	.
> COC(=O)c1ccc(Oc2c(C)oc3cc(OCc4cnn(-c5ccccc5)c4)ccc3c2=O)cc1
 : -23%	-12%	-6%	25%	16%	-15%	10%	-0.5%
